Screening results deposited in PubChem BioAssay by Johns Hopkins Ion Channel Center.
KCNQ2 pot: potentiators of rat KCNQ2 potassium channel | Potassium voltage-gated channel subfamily KQT member 2 (Rattus norvegicus), O88943 | CHO-K1 KCNQ2, FluxOR thallium flux fluorescence; hits give high values | B-score at 10 µM | 310,000 tested, 0.54% active;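 active means fluorescence ratio B-score at least 3 SD of library B-scores, with initial fluorescence B-score within 3 SD, cut at about 5.3 in these data; same plate scores as AID 2156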;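 further: B-score of peak minus minimum over baseline fluorescence ratio after K+ and Tl+ stimulus; positive B-score means potentiation of KCNQ2 with more thallium influx and brighter signal; only the inactives scoring about 0 or higher are listed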
Target sequence (O88943 whole entry, looked up): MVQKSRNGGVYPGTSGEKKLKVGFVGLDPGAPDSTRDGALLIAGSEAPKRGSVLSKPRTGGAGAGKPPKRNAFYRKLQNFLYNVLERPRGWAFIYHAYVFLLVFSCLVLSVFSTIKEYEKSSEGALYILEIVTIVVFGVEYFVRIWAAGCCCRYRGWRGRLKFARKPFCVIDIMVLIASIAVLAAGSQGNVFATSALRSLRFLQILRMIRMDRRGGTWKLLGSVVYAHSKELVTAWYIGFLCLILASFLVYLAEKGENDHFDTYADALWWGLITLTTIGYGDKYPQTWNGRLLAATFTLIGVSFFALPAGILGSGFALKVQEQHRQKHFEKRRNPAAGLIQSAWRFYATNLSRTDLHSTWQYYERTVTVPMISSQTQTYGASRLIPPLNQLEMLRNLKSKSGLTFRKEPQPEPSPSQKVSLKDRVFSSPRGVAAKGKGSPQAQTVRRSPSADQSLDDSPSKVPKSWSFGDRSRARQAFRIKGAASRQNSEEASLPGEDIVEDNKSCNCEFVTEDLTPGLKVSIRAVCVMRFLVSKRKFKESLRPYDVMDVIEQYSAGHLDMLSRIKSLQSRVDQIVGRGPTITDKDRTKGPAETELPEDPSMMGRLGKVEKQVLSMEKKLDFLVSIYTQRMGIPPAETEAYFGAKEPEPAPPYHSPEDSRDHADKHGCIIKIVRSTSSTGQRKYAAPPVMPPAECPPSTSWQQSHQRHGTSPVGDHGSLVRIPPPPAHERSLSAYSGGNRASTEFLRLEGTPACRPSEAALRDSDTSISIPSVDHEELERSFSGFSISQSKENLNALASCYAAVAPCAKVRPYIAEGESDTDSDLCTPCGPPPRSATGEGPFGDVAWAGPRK
KCNQ2 pot baseline: recorded beside KCNQ2 pot, whose call it bears; B-score; compound at 10 µM; measured here: initial fluorescence intensity artifact check;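 brightness before thallium and not channel activity; 0 = typical well and far values either way flag optical interference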
The depositor's hits bear a star. This is a subset; the hit share may differ from the screen's.

SMILES	KCNQ2 pot	KCNQ2 pot baseline
Cc1ccccc1OC(C)C(=O)N1CCN(c2ccccn2)CC1 (stereo not drawn)	1.2	0.59
CCN1C(=O)c2cccc3c(NC(=O)c4ccccc4)ccc1c23	0.53	-1.5
Oc1[nH]c2ccccc2c1C=NCC1CCCO1 (stereo not drawn)	0.06	1.6
Cc1cc(SCNC(=O)c2ccccc2)ncn1	0.63	0.3
Cc1ccccc1C(=O)Nc1ccc(N(C)C)c2ccccc12	0.32	0.44
O=C(CN(C(=O)CCC(=O)Nc1nccs1)c1ccc(F)cc1)NCc1ccccc1	0.8	-0.16
CCCOc1ccc(-c2nnn(CC(=O)N3CCCCC3)n2)cc1	0.68	0.77
CCCC(C)c1nnc(NC(=O)CCS(=O)(=O)c2ccccc2)s1 (stereo not drawn)	1.5	0.65
CN(C)C(=O)c1cnc(Sc2ncc(C(F)(F)F)cc2Cl)n1C	0.81	-0.43
O=C(CN1CCOCC1)Nc1cccc(C(=O)Nc2cccc(C(F)(F)F)c2)c1	0.5	-0.08
COc1ccc(N(CC(=O)NC2CCCC2)C(=O)Cn2nnc(-c3ccc(C)o3)n2)cc1	0.43	-0.93
CCN(CC)CCNC(=O)c1cc2c(=O)n(CC)c3ccccc3c2s1	0.94	-0.34
Cc1c(Cl)cnc(NC(=O)COC(=O)C(NC(=O)c2ccco2)C(C)C)c1Cl (stereo not drawn)	1.4	-0.34
CCCN1CCN(C(=O)c2cc3c(s2)-c2ccccc2OC3)CC1	0.77	-2.1
COc1cc(C2c3c(oc4ccccc4c3=O)C(=O)N2CCN2CCOCC2)cc(OC)c1OC (stereo not drawn)	0.69	-1.7

The list goes on (two carried over from the part before).
SMILES	KCNQ2 pot	KCNQ2 pot baseline
CCCN1CCN(C(=O)c2cc3c(s2)-c2ccccc2OC3)CC1	0.77	-2.1
COc1cc(C2c3c(oc4ccccc4c3=O)C(=O)N2CCN2CCOCC2)cc(OC)c1OC (stereo not drawn)	0.69	-1.7
CCc1nnc(NC(=O)CSc2nnc(CNc3ccc(Cl)cc3)o2)s1	0.51	-2.2
COC(=O)N/N=C\c1c(C)[nH]n(-c2ccccc2)c1=O	0.03	-2.3
CC(C)COC(=O)C(C)Nc1n[nH]c(=S)[nH]c1=O (stereo not drawn)	0.74	1.7
CCOC(=O)C1(CCc2ccccc2)CCN(C(=O)CN2CCOC2=O)CC1	0.42	-1.6
CN(C)C(=O)CSC1c2ccccc2C(=O)N1c1ccccc1 (stereo not drawn)	0.77	-0.28
Cc1nn(-c2ccccc2)c(Cl)c1/C=C1\SC(=S)NC1=O	13*	-0.35*
Cc1cccc(S(=O)(=O)C(C#N)c2nc3ccccc3nc2N2CCOCC2)c1 (stereo not drawn)	0.02	0.52
Cc1cccc(NC(=O)c2cccc(NC3=NC4CS(=O)(=O)CC4S3)c2)c1 (stereo not drawn)	0.88	-0.06
CCC(CC)C(=O)N=C1SC2CS(=O)(=O)CC2N1CCc1ccc(OC)c(OC)c1 (stereo not drawn)	1.6	0.24
CCn1c(=O)cc(SCC(=O)N2CCN(c3ccccc3F)CC2)c2ccccc21	0.03	0.07
COc1ccccc1-c1nnc(SC/C(O)=C(\C#N)c2nc3ccccc3[nH]2)n1C1CCCCC1	0.37	1.4
Cn1c(SCC(=O)N2CCCCCC2)nnc1-c1ccco1	0.05	-1.2
COc1ccc(N=C2NC(=O)C(CO)(CO)S2)cc1	0.63	-1.8
CCCCN1CCc2c([nH]c3ccccc23)C1=O	0.07	0.78
COCCn1c(SCC(=O)Nc2cccc(S(N)(=O)=O)c2)nc2ccccc21	0.69	1.4
CC1CCCN(C2(O)C(=O)Nc3c(C(F)(F)F)cccc32)C1 (stereo not drawn)	0.03	0.14
O=S(=O)(c1ccccc1F)N1CCCc2ccccc21	0.02	-1.2
O=C(O)COCC(=O)Nc1ccc2c(c1)CCC2	1.6	-0.95
O=C(Cn1c(=S)[nH]c2ccccc2c1=O)N1CCN(c2ccccc2)CC1	1.6	-0.36
C/C=C\C=C/C(=O)Nc1cccc(C2=NOC3(C2)C[C@@H](C(N)=O)N(C(=O)c2ccc(Cl)cc2)C3)c1 (stereo partly drawn)	0.96	2
COc1ccc(/C=N/N2C(C)CCCC2C)cc1O (stereo not drawn)	1.4	-0.12
O=C(/C=C/c1ccccc1)N/C(=C/c1ccccc1)C(=O)Nc1ccc(C(=O)O)cc1	0.45	0.07
CSc1nc(-c2ccccc2)c(-c2ccccc2)[nH]1	0.1	0.62
O=C1NC2(CCCCCC2)C(=O)N1Cc1ccccc1Br	0.8	1.1
Cc1ccc2cccc(Oc3cnccn3)c2n1	2	-0.27
CCOC(=O)c1cc(-c2ccccc2)sc1NC(=O)c1ccc(OC)cc1	0.06	-0.31
CCNc1ccc(S(=O)(=O)C(F)(F)F)cc1NC(=O)C12CCC(CC1)C2	1.1	-0.64
O=c1cc(-c2ccccc2)n(S(=O)(=O)c2ccccc2)o1	0.08	0.24
O=C(CCCOc1ccc(Cl)cc1Cl)NCC1CCCO1 (stereo not drawn)	0.32	0.18
C=CCNC(=O)/C(C#N)=C/c1c(N2CCN(c3ccccc3)CC2)nc2c(C)cccn2c1=O	0.57	-0.18

Laid out differently: results already given
C=CCNC(=O)/C(C#N)=C/c1c(N2CCN(c3ccccc3)CC2)nc2c(C)cccn2c1=O
  KCNQ2 pot: 0.57; KCNQ2 pot baseline: -0.18
O=C(CCCOc1ccc(Cl)cc1Cl)NCC1CCCO1 (stereo not drawn)
  KCNQ2 pot: 0.32; KCNQ2 pot baseline: 0.18
O=C1NC2(CCCCCC2)C(=O)N1Cc1ccccc1Br
  KCNQ2 pot: 0.8; KCNQ2 pot baseline: 1.1
CCNc1ccc(S(=O)(=O)C(F)(F)F)cc1NC(=O)C12CCC(CC1)C2
  KCNQ2 pot: 1.1; KCNQ2 pot baseline: -0.64

More compounds.
SMILES	KCNQ2 pot	KCNQ2 pot baseline
COc1cc(C(=O)NC(=S)Nc2ccc(NC(=O)c3ccco3)cc2)cc(OC)c1OC	1.1	0.05
COc1cc(OC)cc(C(=O)N[C@H](C(=O)Nc2cccc(S(=O)(=O)N3CCCC3)c2)C(C)C)c1	0.43	0.47
CN(C)C(=O)c1ccc(Oc2ccc(C(=O)N(C)C)cc2)cc1	0.84	-0.15
COc1cccc(-c2csc(N3CCN(CC(=O)NNC(=O)c4ccc(Cl)cc4)CC3)n2)c1	0.05	0.12
Cc1ccc2cc(CN(Cc3nnnn3C3CCCC3)C3CCCCC3)c(=O)[nH]c2c1C	0.1	0.06
Fc1ccc(C2=Nn3c(Cc4ccccc4)nnc3SC2)cc1	0.01	1.3
COC(=O)CC1C(=O)NC2CCCCC2N1C(=O)c1ccccc1 (stereo not drawn)	0.85	-0.23
C=CCOc1c(Br)cc(/C=C2\SC(=Nc3ccccc3)NC2=O)cc1OC	1.1	0.62
COc1cnc(SCc2c(Cl)cccc2Cl)nc1Cl	0.66	0.45
Nc1[nH]ncc1-c1ccc(F)cc1	0.25	-0.18
CC(=O)c1cnc2cc(-c3cccc(Br)c3)nn2c1C	1.2	1.3
CC1(OC(=O)c2ccco2)C(=O)C=C2C=C(c3ccc(C#N)cc3)OC=C2C1=O (stereo not drawn)	0.77	-1.1
Cc1cc(Cl)ccc1N(CC(=O)NCc1ccc2c(c1)OCO2)S(C)(=O)=O	0.01	-0.18
Brc1ccc(-c2csc(NC3=NCCCCC3)n2)cc1	1.3	1.8
COC(=O)c1c(NC(=O)c2ccc(S(=O)(=O)N3CCOCC3)cc2)sc2c1CCN(C(C)C)C2	3.1	-1.1
Cn1nc([N+](=O)[O-])nc1Oc1ccc(C(C)(C)C)cc1	1.2	-0.74
CCOC(=O)c1[nH]c2ccc(OC)cc2c1NC(=O)CN1CCN(c2ccccn2)CC1	1.9	-2.9
OCCC1CN(Cc2ccncc2)CCN1C1CCCC1 (stereo not drawn)	0.06	1.8
CCCCC(=O)Nc1cc(C)c(NC(=O)c2ccco2)cn1	0.35	1.4
COc1ccc(/C=C/C(=O)OC2CCCN(C)C2)cc1 (stereo not drawn)	1.1	-0.16
Cc1ccccc1C(=O)c1cccn1CC(=O)O	0.07	1.4
O=C(COc1ccc2ccc(=O)oc2c1)Nc1c(Cl)cccc1C(F)(F)F	1	0.33
Cc1cccn2c(=O)c(C=NCCO)c(NCc3ccco3)nc12	0.07	1.4
Cc1cc(N)n2ncc(-c3ccc(F)cc3)c2n1	0.69	-0.77
CCOc1ccc2nc(SCC(=O)c3ccc(C)s3)sc2c1	0.06	0.11
CCOc1ccc(/C=N/NC(=O)c2ccc(Cn3cc(Br)cn3)o2)cc1	1.2	-0.88
COc1ccc(CN2CCN(C(=O)c3ccc4nc(N5CCOCC5)sc4c3)CC2)c(OC)c1OC	0.04	-2.2
O=C(c1ccc(Cl)c(S(=O)(=O)N2CCCCCC2)c1)N1CCN(CCO)CC1	0.23	-0.59
O=c1[nH]c2ccccc2nc1Cc1ccc(Cl)cc1	0.49	0.08
CN(CCOc1ccccc1)CC(O)COc1ccccc1 (stereo not drawn)	0.52	0.01
N=c1c(C(=O)NCCN2CCOCC2)cc2c(=O)n3ccccc3nc2n1CCCN1CCOCC1	0.65	1.1
CCc1nnc(NC2=NCCC2)s1	0.01	-0.63
O=C(N/N=C/c1ccc(C(F)(F)F)cc1)c1ccc(O)cc1	1.5	-1.2
COC(=O)/C=C1\SC(=NC(=O)c2cccc(Cl)c2)NC1=O	0.56	0
COc1cc2cc(C(=O)N(C)Cc3ccccc3)[nH]c2cc1OC	1.3	1.1
Cc1ccc(C)c(N/C(N)=N/c2nc(C)cc(C)n2)c1	2.6	2.4
CN(c1ccc(C(=O)N2CCCCC2)cc1)S(=O)(=O)c1ccccc1	1.9	-1.2
COc1cccc(CSc2nnc(CSc3nc4nc(C)cc(C)n4n3)s2)c1	1.5	0.18
O=C(CN1CCN(Cc2ccc3c(c2)OCO3)CC1)Nc1ccc(N2CCOCC2)cc1	0.08	-1.9
O=S(=O)(c1cccc(C(F)(F)F)c1)N1CCC(c2nc3ccccc3[nH]2)CC1	1.3	-0.05
COC(=O)COc1ccsc1C(=O)OC	0.42	-0.06
CCn1c(=S)[nH]c2cc(C(=O)OC)ccc2c1=O	0.68	-0.01
CNC(=S)N/N=C/c1cc(C)n(-c2ccc(Cl)c(Cl)c2)c1C	0.16	-1.1
CNc1c(NS(=O)(=O)c2ccc(C3CCCCC3)cc2)c(=O)oc2ccccc12	0.03	2.1
CN(C(=O)CCc1ccccc1)c1nnc(-c2ccncc2)s1	1.6	-0.78
COc1ccc(OCc2nn3c(-c4ccco4)nnc3s2)cc1	1.3	-0.13
CSCCC1NC(=O)N(CC(=O)Nc2ccc(-c3ccccc3)cc2)C1=O (stereo not drawn)	0.01	-0.29
CCOc1ccc2[nH]c(C(=O)N/N=C/c3cc(OC)c(OC)c(OC)c3)cc2c1	0.39	2.3
CC(C)CNC(=O)CSc1ccc(Cl)cc1	0.44	-1
CCCN1CCC(NC(=O)C2CC=CCC2C(=O)O)CC1 (stereo not drawn)	0.64	-2.2
Cc1csc(=O)n1CC(=O)OCC(=O)c1c(N)n(CC(C)C)c(=O)n(C)c1=O	0.12	0.74
O=C(CSc1nc2ccccc2[nH]1)N1CCN(S(=O)(=O)c2ccc(Cl)cc2)CC1	1.6	-0.44
Cc1ccccc1NC(=S)NCCc1ccc(S(N)(=O)=O)cc1	1.1	-0.78
O=C(CSc1nnc(CNC(=O)c2cccs2)o1)NCCc1ccccc1	1	0.47
COC(=O)Cn1c(=NC(=O)c2cc(OC)cc(OC)c2)sc2cc(OC)ccc21	0.38	-0.18
CC[C@H]1c2[nH]c3ccccc3c2C[C@@H]2C(=O)N(c3ccc(F)cc3)C(=O)N21	0.42	-0.04
Cc1ccc(N2NC(C)(c3cccs3)NC2=S)cc1 (stereo not drawn)	0.02	0.84
CCN(CC(=O)Nc1ccccc1C(F)(F)F)C(=O)CN1C(=O)NC2(CCCC2)C1=O	0.01	0.74
CCCn1c(SCC(=O)NCCc2ccc(Cl)cc2Cl)n[nH]c1=O	0.06	0.75
Cc1ccc(C2=NCN(c3ccc(C(=O)O)cc3)C(=S)N2)cc1	0.51	0

Later entries.
SMILES	KCNQ2 pot	KCNQ2 pot baseline
Cc1ccc(NC(=O)N(C)c2ccccc2)cc1	0.57	1.1
COc1cccc(CC(=O)OCC(=O)NC(=O)c2ccc(OC(F)F)cc2)c1	0.25	-0.53
CC(=O)c1ccc(OCCNS(=O)(=O)c2ccc(-n3cnnn3)c(C)c2)cc1	0.3	0.87
COc1ccc(S(=O)(=O)N(CC(=O)NN=C2CCN(C)CC2)c2ccc(C)cc2)cc1OC	1.4	-0.11
Nc1ccc2nc(-c3ccc(N)c(Cl)c3)[nH]c2c1	0.05	0.13
CC(/C=N/NC(=O)c1nnn(-c2nonc2N)c1C(C)C)=C\c1ccco1	0.81	-1
CC(/C=N/N1CCN(c2ccccc2)CC1)=C\c1ccccc1	0.43	-2.1
CC1=CC(=Nc2c(C)n(C)n(-c3ccccc3)c2=O)C=C(C)C1=O	1.3	-1.3
Cc1nn(CCCC(=O)Nc2cc(Oc3ccccc3)cc([N+](=O)[O-])c2)c(C)c1[N+](=O)[O-]	1.6	-0.01
CCC1CCC(NC2CCCCNC2=O)CC1 (stereo not drawn)	1.2	-0.03
COc1ccc(OCc2cc(C(=O)N3CCN(CC4CC4)CC3)no2)c(Cl)c1	0.1	-0.67
Cc1c(NC(=O)OC(C)C)sc(=S)n1C	0.34	-0.38
O=C(NNC(=O)c1c(O)c2ccccc2[nH]c1=O)c1ccccc1	0.61	0.98

Single values from the entries so far:
KCNQ2 pot with Cc1c(NC(=O)OC(C)C)sc(=S)n1C reads 0.34
KCNQ2 pot with COc1ccc(S(=O)(=O)N(CC(=O)NN=C2CCN(C)CC2)c2ccc(C)cc2)cc1OC reads 1.4
KCNQ2 pot baseline with O=C(NNC(=O)c1c(O)c2ccccc2[nH]c1=O)c1ccccc1 reads 0.98
KCNQ2 pot with CC(/C=N/NC(=O)c1nnn(-c2nonc2N)c1C(C)C)=C\c1ccco1 reads 0.81
